Screening data as filed in PubChem BioAssay.
RecA splice inh – inhibitors of M. tuberculosis RecA intein splicing; P9WHJ3; cell-free RecA intein splicing, fluorescence; inhibition, %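 (about 9 µM by stock and volumes)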; hit rate 0.75% among 290,000; AID 2221; in the data active means inhibition above about 30%; inconclusive means no clear call, values can overlap the other calls;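 further: 0% = vehicle wells and 100% = reference inhibitor control wells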
Target sequence (P9WHJ3 whole entry, looked up, canonical isoform): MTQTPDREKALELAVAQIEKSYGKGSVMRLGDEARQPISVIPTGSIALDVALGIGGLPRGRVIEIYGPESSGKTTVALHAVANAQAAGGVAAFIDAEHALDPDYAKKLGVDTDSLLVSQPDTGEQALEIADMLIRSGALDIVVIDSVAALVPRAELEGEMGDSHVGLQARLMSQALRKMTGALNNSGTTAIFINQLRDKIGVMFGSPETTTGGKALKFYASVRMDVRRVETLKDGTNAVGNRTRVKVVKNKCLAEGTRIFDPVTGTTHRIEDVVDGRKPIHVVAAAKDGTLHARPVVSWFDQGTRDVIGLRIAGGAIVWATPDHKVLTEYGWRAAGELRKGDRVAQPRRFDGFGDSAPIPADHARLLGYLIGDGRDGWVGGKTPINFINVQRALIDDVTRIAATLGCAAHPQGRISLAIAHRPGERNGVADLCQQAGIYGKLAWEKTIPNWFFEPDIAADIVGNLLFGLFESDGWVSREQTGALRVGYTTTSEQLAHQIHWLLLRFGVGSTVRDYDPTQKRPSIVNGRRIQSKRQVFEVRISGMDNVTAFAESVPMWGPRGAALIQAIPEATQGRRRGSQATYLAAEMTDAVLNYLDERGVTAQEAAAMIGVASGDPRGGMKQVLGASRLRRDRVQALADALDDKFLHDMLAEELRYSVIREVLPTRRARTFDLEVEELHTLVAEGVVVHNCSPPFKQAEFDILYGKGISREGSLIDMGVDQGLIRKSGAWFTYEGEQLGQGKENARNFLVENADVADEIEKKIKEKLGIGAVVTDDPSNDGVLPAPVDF
Arbovirus inh – antivirals against arbovirus infection | hit rate 0.37% among 200,000 | AID 1251 | inhibition, % at 10 µM | arbovirus infection cell-based antiviral screen;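 active means inhibition from about 30%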;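 further: bluetongue infection of BSR cells; cell survival read as ATP light after 72 h; 0% = infected wells without compound and 100% = uninfected wells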
YopH inh – YopH (Yersinia) phosphatase inhibition | fluorescence Ex485/Em525 | inhibition, %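 (about 10 µM by stock and volumes)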 | hit rate 0.16% among 140,000;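 active means inhibition of 50% or more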;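 further: controls were vehicle for no effect and minimum signal wells for full effect; inactives centre near -20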
Mtb bLac sens – beta-lactam sensitization of Mtb H37Rv. M. tuberculosis H37Rv growth with meropenem, percent inhibition; hits of this screen are not shown here. AID 434955. hit rate 0.27% among 330,000. inhibition, % at 25 µM;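 active means about 74% or more and at least 40 points above the plate without the antibiotic, then above 30% in a dose series; inconclusive means first-round hits that could not be retested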;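 further: growth measured after seven days incubation then overnight dye step; 0% = bacteria only wells and 100% = bacteria with antibiotic; twin plates without the antibiotic show which effects depend on it; some results filed as inactive read as strong as hits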
Mtb H37Rv – M. tuberculosis H37Rv growth inhibitors, H37Rv strain (AID 1626); M. tuberculosis H37Rv growth inhibition; higher % means a stronger effect; hit rate 0.95% among 220,000; inhibition, % at 10 µM, or IC50 in µM where a hit was titrated;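 active means confirmed in a dose series; inconclusive means inhibition above 80% but not taken into the dose series; inactive means below 80% or under 30% at every dose of the series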;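 further: bacteria incubated seven days before Alamar blue readout; 0% = bacteria only wells and 100% = bacteria with antibiotic wells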
Arbovirus inh repeat – further read-out of Arbovirus inh, marked with its call; inhibition, %; measured here: 10K subset replicate screen; many hits read low in the repeat;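 first of two repeat runs on a subset; 0% = infected and 100% = uninfected wells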
Starred values were filed as active, the others as inactive; ? = inconclusive; nt = no result given. A portion of the library; rates above refer to the full screens.

SMILES	RecA splice inh	Arbovirus inh	YopH inh	Mtb bLac sens	Mtb H37Rv	others
CC(=O)c1cccc(NC(=O)CN(c2ccc(C)cc2)S(=O)(=O)c2cccc3nonc23)c1	1.3	-1.1	-3.9	53.5	nt
Cc1ccc2nc(N(CCCN(C)C)C(=O)c3sc4ccccc4c3Cl)sc2c1	9.7	7.7	-31.7	-5.9	0.0%
COc1ccccc1/C=C/C(=O)NCC(=O)N/N=C/c1cc(Br)ccc1OC	4.8	-30.4	-10.4	nt	11.1%
COc1ccc(C2Cc3ccccc3C(=O)O2)cc1 (configuration not stated)	4.5	6.3	-25.2	-8.4	10.7%
O=C(NN1CCOCC1)c1ccc(Cl)c(Cl)c1	-2.2	nt	nt	-8.4	nt
COc1ccc(-n2cccc2/C=C2\C(=N)N3N=C(C(C)C)SC3=NC2=O)cc1	0.5	30.0*	nt	2.6	-3.4%
COCCNC(=S)Nc1ccc(N2CCCCC2)cc1	-5.4	-1.2	nt	44.1	1.6%
CCCCOCCCNC(=O)c1ccc(OCC)cc1	-2.0	4.7	-9.8	-2.0	5.7%
CC(C)c1ccc(N(C(=O)c2csnn2)C(C(=O)NC(C)(C)C)c2ccncc2)cc1 (configuration not stated)	-1.1	-1.8	-33.3	2.7	-3.4%
COC(=O)c1c(NC(=O)COc2ccc(Cl)cc2)sc2c1CC(C)(C)NC2(C)C	4.0	nt	nt	?	nt
CCCn1c(C)cc(/C=C(\C#N)C(=O)OCC(=O)NC(=O)NC(C)(C)C)c1C	1.1	-3.1	-8.7	-16.4	-7.4%
O=c1c2ccccc2nc(SCc2cn3ccsc3n2)n1-c1ccccc1F	13.1	-5.1	-39.3	49.1	7.4%
COCCN(C(=O)COC(=O)C12CC3CC(CC(Cl)(C3)C1)C2)c1c(N)n(Cc2ccccc2)c(=O)[nH]c1=O	1.7	nt	nt	-3.4	nt
COc1ccc(NC(=O)CC2C(=O)N(c3ccccc3)C(=O)N2Cc2ccco2)cc1 (configuration not stated)	-1.5	-12.2	nt	-3.1	0.8%
CCOc1ccc2ccccc2c1/C=N/NC(=O)CC1(C)OCCCO1	-2.3	12.2	-26.1	6.3	2.6%
CC(C)=NOCC(=O)Nn1c(COc2ccccc2)nc2ccccc2c1=O	0.9	nt	nt	0.3	nt
CN1CCCN(c2ncnc3scc(-c4ccc(F)cc4)c23)CC1	3.5	0.7	nt	-8.7	-3.0%
COc1cc(C(=O)NCc2ccccn2)ccc1OCc1c(C)noc1C	-0.7	6.9	-34.5	-4.5	nt
COc1cccc(-c2csc(N3CCN(Cc4ccccc4)CC3)n2)c1	5.5	6.5	2.2	3.5	14.7%
COc1cc(NC(=O)c2cccs2)ccc1NC(=O)Cc1ccccc1	1.1	nt	nt	?	nt
CC(C)Cn1c(=O)c2ccccc2n2c(CCC(=O)O)nnc12	-1.8	nt	nt	-7.2	nt
COc1ccc(OC)c(-c2csc(N3CCC(c4ccccc4)CC3)n2)c1	-1.5	1.8	nt	7.0	-1.7%
CC(Oc1ccc(F)cc1)c1ccnc2nc(/N=C/N(C)C)nn12 (configuration not stated)	-0.2	8.5	nt	1.1	2.1%
CNC(=S)N(CCc1ccccc1)Cc1cc2cc(OC)c(OC)cc2[nH]c1=O	0.0	-0.7	-3.5	10.1	4.9%
Cc1cc(NS(=O)(=O)c2ccc(NC(=O)c3cc(-c4cccnc4)nc4ccc(Cl)cc34)cc2)no1	4.1	15.1	-7.5	25.6	-4.1%

The last 3 records of the section before come first, to join the parts:
SMILES	RecA splice inh	Arbovirus inh	YopH inh	Mtb bLac sens	Mtb H37Rv	others
CC(Oc1ccc(F)cc1)c1ccnc2nc(/N=C/N(C)C)nn12 (configuration not stated)	-0.2	8.5	nt	1.1	2.1%
CNC(=S)N(CCc1ccccc1)Cc1cc2cc(OC)c(OC)cc2[nH]c1=O	0.0	-0.7	-3.5	10.1	4.9%
Cc1cc(NS(=O)(=O)c2ccc(NC(=O)c3cc(-c4cccnc4)nc4ccc(Cl)cc34)cc2)no1	4.1	15.1	-7.5	25.6	-4.1%
Cc1cc(OC(=O)c2c(Cl)cccc2Cl)nc(C)n1	0.4	2.8	-16.7	6.4	-4.5%
COc1cccc(OC)c1C(=O)Nc1ccc2c(c1)Cc1ccccc1-2	3.2	-3.0	nt	-7.5	0.7%
COc1ccc2oc(C(=O)OCC(=O)N(C)CC(=O)Nc3ccc(C)cc3)c(C)c2c1	5.4	nt	nt	-12.8	nt
CCCc1cc(=O)[nH]c(SCC(=O)N2CCC(C)CC2)n1	-0.6	nt	nt	?	nt
O=C(NC1CC(=O)N(c2ccc(Cl)cc2)C1)C1CC1 (configuration not stated)	-1.3	nt	nt	-8.0	nt
CN(C)c1nc(N(C)C)nc(N(C#N)Cc2ccc(Cl)cc2)n1	-3.2	nt	nt	3.9	nt
NC(=O)C(CC(=O)O)NC(=O)[C@@H]1CCCNc2c(I)cc([N+](=O)[O-])cc2C(=O)N[C@@H](CO)C(=O)N[C@@H](Cc2ccc(O)cc2)C(=O)N1 (some centres not stated)	nt	-0.9	-6.7	-14.2	-5.1%
COc1cc(/C=C2/C(=O)ON=C2C)ccc1OCc1ccccc1F	-0.4	-12.9	-11.1	7.0	-5.0%
O=C(c1ccco1)N(CCO)Cc1cc2cc3c(cc2[nH]c1=O)OCO3	10.0	-2.3	nt	2.5	2.2%
O=C(COC(=O)[C@@H]1CC(O)CN1S(=O)(=O)c1ccc(Cl)cc1)NC(=O)NCc1ccccc1 (some centres not stated)	0.1	nt	nt	-10.5	nt
Cn1c(=O)[nH]c(=O)c2c1nc(OC(=O)c1ccccc1)n2CC(O)COc1ccc(F)cc1 (configuration not stated)	4.9	-1.9	-2.7	nt	-14.1%
COc1ccc2[nH]cc(CCCN3C(=O)c4ccccc4C3=O)c2c1	-0.1	11.5	-6.6	3.0	5.0%
COCc1cc(Sc2c(Cl)cccc2Cl)nc(-c2ccccc2)n1	-1.9	-0.9	-42.2	3.0	12.9%
O=C(N/N=C/c1cc2c(cc1Cl)OCO2)c1ccc2c(c1)OCCO2	-1.1	nt	nt	-7.1	-0.9%
CCOc1ccc(NC(=O)CCNC(=O)C2CCN(S(=O)(=O)c3ccccc3)CC2)cc1	-2.2	nt	nt	0.6	nt
O=C(NCC(=O)N(CC1CCCO1)C(C(=O)NC1CCCCC1)c1cccnc1)c1cccs1 (configuration not stated)	-0.3	13.1	nt	3.3	-1.2%
COc1ccc(CCNC(=O)C(=O)NN=C2CCCCCCC2)cc1OC	-0.1	nt	nt	24.6	-13.6%
Cc1ccc(OCC(=O)N2CCN(Cc3ccc([N+](=O)[O-])cc3)CC2)cc1	0.5	nt	nt	-6.2	6.0%
COc1ccc(CNC(=O)c2csc(Cc3ccccc3)n2)cc1	6.2	-2.1	-26.8	0.1	3.6%
O=C(O)CCN(CCC(=O)O)S(=O)(=O)c1ccccc1	nt	-1.8	-48.3	-0.8	2.2%
CN(C(=O)C1CCC(=O)N(Cc2cccc(F)c2)C1)C1CCCCC1 (configuration not stated)	0.1	nt	nt	-9.6	nt
O=C(OC(C(=O)NCC1CCCO1)c1ccccc1F)c1ccco1 (configuration not stated)	-0.9	-0.5	-27.1	-0.1	-10.1%
COc1ccc(CCN2CC(C(=O)NCCN3CCCC3=O)CCC2=O)cc1 (configuration not stated)	-3.9	nt	nt	-1.9	nt
COC(=O)COc1nc(C)c(Br)c(OC)n1	-0.7	0.8	-22.1	97.7	2.6%
CCOc1ccc(-n2cnc3sc(C)c(C)c3c2=O)cc1	2.0	nt	nt	-1.0	nt
(list continues)
SMILES	RecA splice inh	Arbovirus inh	YopH inh	Mtb bLac sens	Mtb H37Rv	others
Cc1ccccc1C(=O)NNC(=O)c1cccc([N+](=O)[O-])c1	-4.2	-1.5	nt	0.3	2.5%
O=C(C1CCN(C2CCN(Cc3ccc4c(c3)CCO4)CC2)CC1)N1CCOCC1	-0.2	8.5	nt	0.3	6.9%
CCOC(=O)C1CCN(CC(C)(C)NS(=O)(=O)c2ccc(Cl)cc2)CC1	-1.7	nt	nt	2.5	nt
O=c1c2ccccc2nc2n1CCO2	-1.2	nt	nt	-4.0	nt
COc1ccccc1C1CC(c2ccc(Cl)cc2Cl)Nc2nc(N)nn21 (configuration not stated)	4.1	14.9	-42.6	-4.8	21.3%	Arbovirus inh repeat=-14.6
O=S(=O)(c1ccccc1)N1CCNCC1	-3.1	nt	nt	4.7	nt
CC1=C(C(=O)OCCOC(C)C)C(c2cc3c(cc2Br)OCO3)C2=C(CCCC2=O)N1 (configuration not stated)	-11.6	-2.1	-2.9	-5.7	1.0%
NC(=S)N=Nc1c(O)n(CCCl)c2ccc(Cl)cc12	3.0	-3.5	nt	1.3	9.2%
O=C(O)c1cccc(N2C(=O)CSC2c2ccccc2)c1 (configuration not stated)	8.2	nt	nt	7.0	nt
Cc1nn(Cc2ccc(Cl)cc2Cl)c(C)c1NC(=O)c1nn(C)cc1Cl	-2.5	9.8	-11.3	-14.4	-1.3%
O=S(=O)(Nc1nc2ccccc2nc1Nc1ccc2c(c1)OCCO2)c1cccs1	-7.5	26.0	-12.9	7.3	1.3%
CCOc1ccc(NC(=O)c2cc(F)c(F)cc2Cl)cc1OCC	1.6	-4.5	nt	2.2	8.7%
COc1ccc(N2CCN(C(c3cccc(OC)c3OC)c3nnnn3C3CCCC3)CC2)cc1 (configuration not stated)	4.9	-2.5	13.7	13.9	-1.2%
COc1cccc(NC(=O)C2CCN(S(=O)(=O)c3ccc4c(c3)N(C(C)=O)CCO4)CC2)c1	-1.4	nt	nt	3.7	nt
CCOP(=O)(OCC)C(NC(=O)Nc1ccc(Cl)c(Cl)c1)C(N)=O (configuration not stated)	-0.4	1.5	-27.1	-8.7	-5.4%
COc1cc(NC(=O)c2cc([N+](=O)[O-])ccc2NC(=O)CNC2CCCCC2)cc(OC)c1	5.6	nt	nt	14.2	nt
CC(=O)NC1=NN(C(C)=O)C(c2ccc(C(C)C)cc2)S1 (configuration not stated)	-2.6	-1.1	-4.0	1.8	1.4%
COc1ccc(C(=O)NC23CC4CC(CC(C4)C2)C3)cc1	-1.4	nt	nt	-6.3	nt
CN1C(CC(=O)Nc2ccc(Cl)cc2Cl)c2ccccc2CC1(C)C (configuration not stated)	3.9	nt	nt	-10.2	5.1%
CCCCn1c(N)c(N(CC(C)C)C(=O)CCCSc2nncs2)c(=O)[nH]c1=O	0.9	7.8	nt	-1.3	-5.6%
CCn1c(/C=C2\C(=O)Nc3ccccc32)nc2ccccc2c1=O	3.9	-11.4	-11.4	-0.4	7.9%
O=C(NCCc1ccccc1)C1CCN(C2CCN(Cc3ccco3)CC2)CC1	-0.9	-5.8	nt	1.1	-3.3%

Ordered by molecular weight (largest number first): some entries from above
SMILES	RecA splice inh	Arbovirus inh	YopH inh	Mtb bLac sens	Mtb H37Rv	others
CC1=C(C(=O)OCCOC(C)C)C(c2cc3c(cc2Br)OCO3)C2=C(CCCC2=O)N1 (configuration not stated)	-11.6	-2.1	-2.9	-5.7	1.0%
COc1cccc(NC(=O)C2CCN(S(=O)(=O)c3ccc4c(c3)N(C(C)=O)CCO4)CC2)c1	-1.4	nt	nt	3.7	nt
CCCCn1c(N)c(N(CC(C)C)C(=O)CCCSc2nncs2)c(=O)[nH]c1=O	0.9	7.8	nt	-1.3	-5.6%
Cc1nn(Cc2ccc(Cl)cc2Cl)c(C)c1NC(=O)c1nn(C)cc1Cl	-2.5	9.8	-11.3	-14.4	-1.3%
CCOC(=O)C1CCN(CC(C)(C)NS(=O)(=O)c2ccc(Cl)cc2)CC1	-1.7	nt	nt	2.5	nt
CCOP(=O)(OCC)C(NC(=O)Nc1ccc(Cl)c(Cl)c1)C(N)=O (configuration not stated)	-0.4	1.5	-27.1	-8.7	-5.4%
